Screens (PubChem BioAssay)
NPYLR7 agonist: mosquito NPYLR7 agonism; HEK293T NPYLR7/Galpha15, GCaMP6s calcium fluorescence; activation, % at 10 µM; 270,000 tested, 0.15% active; in the data active means activation above about 40%;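 further: 0% = vehicle and 100% = reference agonist at the receptor; some compounds past the cut are filed as inactive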
NPYLR7 agonist max-min: further read-out of NPYLR7 agonist, marked with its call; activation, %; measured here: Max-Min RFU normalised activation; some inactives read as strong as hits;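 span of the calcium signal over five minutes; 0% = vehicle and 100% = native peptide agonist; compound fluorescence can raise it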
An asterisk follows results filed as active; & = joins results of further samples. Some of the compounds tested (hit frequency here may not be typical).

SMILES | NPYLR7 agonist | NPYLR7 agonist max-min
Cc1onc(-c2ccccc2)c1C(=O)Nc1cc(-c2onc3c2CCCC3)cc(C(F)(F)F)c1 | 26 | 35
O=C(NCc1ccccc1O)c1ccc2c(c1)C(=O)c1ccccc1-2 | 2 | -2
NCC[C@H](O)C(=O)N[C@@H]1C[C@H](N)[C@@H](O[C@H]2O[C@H](CN)[C@@H](O)[C@H](O)[C@H]2O)[C@H](O)[C@H]1O[C@H]1O[C@H](CO)[C@@H](O)[C@H](N)[C@H]1O | -7 | -11
Cc1c(C)c2c(c(C)c1O)CCC(C)(C(=O)N1CCC(O)(CO)CC1)O2 (stereo not given) | 1 | 0
COc1cccc(CN(Cc2nc(C(=O)NCc3ccc(F)cc3)co2)CC2CC2)c1 | 15 | 7
CSc1ccc(C(c2c(O)cc(C)n(Cc3ccccc3)c2=O)N2CCN(C)CC2)cc1 (stereo not given) | 7 | 5
CC(C)(C)n1ncc2c1CCN(Cc1ccccc1F)C2 | -1 | 8
N#CC1C(SCC(=O)NC2CC2)=NC2=C(C(=O)CCC2)C1c1ccco1 (stereo not given) | 1 | -7
COc1ccc2n[nH]c(CN3CCN(S(=O)(=O)c4ccccc4)CC3)c2c1 | 2 | -1
O=C1CCC(=O)N1c1cccc(-c2nc3ccccc3c(=O)o2)c1 | 3 | 12
CCN(CC)CCOc1ccccc1OC | -19 | -31
CC(C)Cn1c(N)c(C(=O)CSc2nccn2C)c(=O)n(C)c1=O | -3 | -6
COc1cc(C(=O)Nc2ccc3c(c2)N(S(C)(=O)=O)CCC3)c([N+](=O)[O-])cc1OC | -3 | 5
c1cncc(NCCCNC2CCc3ccccc3C2)c1 (stereo not given) | 8 | 3
CSCc1nc2cc(C(F)(F)F)ccc2c(=O)[nH]1 | 1 | 679
CCn1cc(C(=O)N2CCN(C(=O)c3cc4ccccc4o3)CC2)c2nn(-c3ccccc3)c(=O)c-2c1 | 4 | 2
Cc1nc(C(=O)N2CC(C(N)=O)CCC2C(F)(F)F)nn1-c1ccccc1C(C)C (stereo not given) | 8 | 2
Cc1c(F)cccc1N1C(=O)CSC1c1ccccc1NC(=O)Cc1cccs1 (stereo not given) | 0 | 8
Cc1cccc(Cn2nccc2NC(=O)CSc2cc(F)ccc2F)c1 | -2 | 0
COc1ccc(OC)c(C2CC(c3ccccc3Cl)=NN2C(=O)CN2CCN(c3ccccc3F)CC2)c1 (stereo not given) | 5 | 2
COc1ccc(N2C(=O)CSC2c2ccccn2)c(OC)c1 (stereo not given) | -9 | -13
Cc1nn(CC(=O)N2CCCCC2C)c(C)c1[N+](=O)[O-] (stereo not given) | -4 | -3
CC1=C(C(=O)OCCOC(C)C)C(c2cccnc2)C2=C(CCCC2=O)N1 (stereo not given) | -5 | -11
CCOCCNC(=O)c1c(C)noc1-c1cccnc1 | 27 | 15
CC(=O)N1CCC(Oc2ccc(Cl)cc2C(=O)NCc2ccccc2F)CC1 | 2 | -1
CCn1nc(C)c(CN2CCc3c([nH]c4ccccc34)C2C(C)(C)C)c1C (stereo not given) | 9 | -5
COCCN(Cc1nccn1Cc1ccc(Cl)c(Cl)c1)C(=O)c1cccc(OC)c1 | 16 | 10
Cc1cnc2n(c1=O)C(CC(=O)N1CCN(c3ccc(F)cc3)CC1)CS2 (stereo not given) | -3 | -6
COCCN(Cc1c(C)nn(-c2ccc(F)cc2)c1Oc1ccc(F)cc1)CC(C)O (stereo not given) | -5 | 1
CCCN(CCC)C(=O)Cc1csc2nc(C)c(-c3cc(C)n(-c4cccc(F)c4)n3)c(=O)n12 | 4 | 3
COCCNC(=O)Cn1c(CO)cnc1SCc1cccc(Cl)c1 | 9 | 6
CN(Cc1cc2n(n1)CCNC2)Cc1noc(C2CCC2)n1 | 16 | 10
CC1(C)COC(O)(C(F)(F)F)CC1=O (stereo not given) | 6 | 2
Cc1cc(O)c(C(c2ccccc2)N2CCN(c3ccc(F)cc3)CC2)c(=O)n1Cc1ccccn1 (stereo not given) | 11 | 7
COc1ccc(-c2nnc(CNC34CC5CC(CC(C5)C3)C4)o2)cc1 | 0 | 0
CCC(C)NC(=O)c1nn(-c2ccc(C)c(C)c2)c(=O)n(Cc2cccc(Cl)c2)c1=O (stereo not given) | 15 | 24
Cc1nn(C)c(C)c1S(=O)(=O)N1CCCC(C(=O)c2cccc(Cl)c2)C1 (stereo not given) | -6 | -9
COc1ccc(C(=O)NCc2ncccc2C)cc1OC1CCN(C(C)=O)CC1 | -3 | -3
CCOC(=O)c1ccc(OCC(O)CN2C(=O)c3ccccc3C2=O)cc1 (stereo not given) | 0 | 1
CN(C)CCNc1nc(Nc2ccccc2)c2nccnc2n1 | 5 | 6
Cc1ccc(C(=O)n2cnnc2N)cc1C | -1 | -2
C#CCNC(=O)NC1(C(=O)NC2CCCC2)CCc2ccccc21 (stereo not given) | 9 | 7
O=C(CSc1ccc2nnc(-c3ccccn3)n2n1)Nc1nc2ccccc2s1 | 0 | 2
C#CCn1c(=NC(=O)c2ccccc2OC)sc2cccc(OC)c21 | 2 | 1
CC1(C(=O)NS(=O)(=O)c2ccc(F)cc2F)CCN1C(=O)CC1CCCCC1 (stereo not given) | 6 | 1
COc1ccc2[nH]c3c(c2c1)CCN(C(=O)c1cc(C(C)(C)C)nn1Cc1ccccc1)C3c1ccccc1OC (stereo not given) | 15 | -1
Cc1nc(C)c(Cc2cccc(C(F)(F)F)c2)c(N2CCN(C(=O)c3ccc(Br)cc3)CC2)n1 | -1 | 7
COCCCNC(=O)c1c(C)noc1-c1ccc(C(C)(C)C)cc1 | 8 | 1
O=C(/C=C/c1ccccc1)NCC1Cc2cc(F)ccc2O1 (stereo not given) | 2 | -3
COC(=O)C(NCc1ncc(C)o1)c1ccc(Br)cc1 (stereo not given) | 9 | 7
COc1ccc2[nH]c3c(c2c1)CCN(C(=O)c1ccccc1SC(F)F)C3c1ccc(OCc2ccccc2)cc1 (stereo not given) | 11 | -2
COCCCN(CC(=O)N(Cc1ccccc1)Cc1ccco1)C(=O)Nc1cccc(C(F)(F)F)c1 | 19 | 17
C=CCNc1ccccc1C(=O)N(C)Cc1nc(C)cs1 | 11 | -3
O=C1N(CC2CCCCC2)CCCC12CCN(Cc1ccco1)C2 (stereo not given) | 5 | 2
CCOC(=O)CCC(=O)OC1C(OC2C(C)C(OC3CC(C)(OC)C(O)C(C)O3)C(C)C(=O)OC(CC)C(C)(O)C(O)C(C)C(=O)C(C)CC2(C)O)OC(C)CC1N(C)C (stereo not given) | 0 | -3
CC(=O)Oc1ccccc1C=C1SC(=S)N(CC(=O)O)C1=O | -7 | -9
Cc1nc(N2CCOCC2)ncc1-c1cc(=O)[nH]c(N2CCOCC2)n1 | 2 | -1
CCCCc1ccc(NC(=O)C2OC(c3ccncc3)=NN2C(C)=O)cc1 (stereo not given) | 29 | 25
COCCN1C(c2ccccc2)=CC(=C2C(=O)NC(=S)NC2=O)C2=C1CCCC2 | -8 | -11
Cc1ncsc1-c1ccn(CC(=O)Nc2ccnn2C2CCCCC2)n1 | 18 | 13

As a short view, 17 of the compounds above.
SMILES | NPYLR7 agonist | NPYLR7 agonist max-min
C#CCn1c(=NC(=O)c2ccccc2OC)sc2cccc(OC)c21 | 2 | 1
CC1(C(=O)NS(=O)(=O)c2ccc(F)cc2F)CCN1C(=O)CC1CCCCC1 (stereo not given) | 6 | 1
COc1ccc2[nH]c3c(c2c1)CCN(C(=O)c1cc(C(C)(C)C)nn1Cc1ccccc1)C3c1ccccc1OC (stereo not given) | 15 | -1
Cc1nc(C)c(Cc2cccc(C(F)(F)F)c2)c(N2CCN(C(=O)c3ccc(Br)cc3)CC2)n1 | -1 | 7
COCCCNC(=O)c1c(C)noc1-c1ccc(C(C)(C)C)cc1 | 8 | 1
O=C(/C=C/c1ccccc1)NCC1Cc2cc(F)ccc2O1 (stereo not given) | 2 | -3
COC(=O)C(NCc1ncc(C)o1)c1ccc(Br)cc1 (stereo not given) | 9 | 7
COc1ccc2[nH]c3c(c2c1)CCN(C(=O)c1ccccc1SC(F)F)C3c1ccc(OCc2ccccc2)cc1 (stereo not given) | 11 | -2
COCCCN(CC(=O)N(Cc1ccccc1)Cc1ccco1)C(=O)Nc1cccc(C(F)(F)F)c1 | 19 | 17
C=CCNc1ccccc1C(=O)N(C)Cc1nc(C)cs1 | 11 | -3
O=C1N(CC2CCCCC2)CCCC12CCN(Cc1ccco1)C2 (stereo not given) | 5 | 2
CCOC(=O)CCC(=O)OC1C(OC2C(C)C(OC3CC(C)(OC)C(O)C(C)O3)C(C)C(=O)OC(CC)C(C)(O)C(O)C(C)C(=O)C(C)CC2(C)O)OC(C)CC1N(C)C (stereo not given) | 0 | -3
CC(=O)Oc1ccccc1C=C1SC(=S)N(CC(=O)O)C1=O | -7 | -9
Cc1nc(N2CCOCC2)ncc1-c1cc(=O)[nH]c(N2CCOCC2)n1 | 2 | -1
CCCCc1ccc(NC(=O)C2OC(c3ccncc3)=NN2C(C)=O)cc1 (stereo not given) | 29 | 25
COCCN1C(c2ccccc2)=CC(=C2C(=O)NC(=S)NC2=O)C2=C1CCCC2 | -8 | -11
Cc1ncsc1-c1ccn(CC(=O)Nc2ccnn2C2CCCCC2)n1 | 18 | 13

(further entries)
SMILES | NPYLR7 agonist | NPYLR7 agonist max-min
COc1nc(C)cc(C)c1CNC(=O)C(=O)N1CCc2ccccc21 | 16 | 15
CN(c1cc(-n2cccn2)nc(N)n1)C1CCCCC1 | 3&-6 | 2&-11
O=S(=O)(NCCCn1ccc2ccccc21)c1ccc(S(=O)(=O)N2CCCC2)cc1 | 0 | 20
Cc1ccc2nc(-c3ccccc3Cl)c(Nc3c(C)cccc3C)n2c1 | 23 | 17
COc1ccc(/C=C2/SC(=S)N(N)C2=O)cc1OC | -4 | -4
CCOc1cn2c(cc1=O)C(=O)N(CCNC(=O)c1ccccc1C)CC2 | 10 | 2
CCOc1nc(-c2cccc(OC)c2)n(-c2cccc(NC(=O)c3cccc(F)c3)c2)n1 | 19 | 14
COc1ccc(CNS(=O)(=O)c2ccc(F)c(C)c2)cc1 | 4 | 7
COc1ccc(C(=O)NCCn2nc(-c3ccc(OC)cc3)ccc2=O)cc1 | 5 | 4
CCCCc1ccc(NC(=O)CSc2nc(=O)n(CCCN(C)C)c3c2CCCC3)cc1 | -1 | 5
CC[C@@H]1[C@H](O)c2ccccc2S(=O)(=O)N1CC(=O)NC | 29 | 40
Fc1cccc(CN2CCN(Cc3ccc(-c4ccn[nH]4)s3)CC2)c1 | 18 | 15
O=C(Nc1c[nH]ccc1=O)c1nn(-c2ccccc2F)c2c1CCC2 | -1 | -2
CCOc1ccc(C2C(C(=O)OCCc3ccccc3)=C(C)NC3=C2C(=O)CCC3)cc1 (stereo not given) | 0 | -6
CCC(C)N1CCC2(CC1)N=c1c(c3c4c5c(C)c(O)c3c(O)c1=NC(=O)/C(C)=C/C=C/[C@H](C)[C@H](O)[C@@H](C)[C@@H](O)[C@@H](C)[C@H](OC(C)=O)[C@H](C)[C@@H](OC)/C=C/O[C@@](C)(O5)C4=O)N2 (stereo not given in full) | 25 | 14
O=C(NCc1cccnc1)c1csc(COc2ccc(F)cc2)n1 | 3 | 10
O=C(CCS(=O)(=O)c1ccc(Cl)cc1)Nc1cccnc1 | 0 | -2
CCOC(=O)N1CCN(Cc2ccc3c(c2)CN(C(=O)c2ccc(F)c(Cl)c2)CCO3)CC1 | 18 | 6
COc1cccc(-c2noc(CN3CCCN(C)c4cc(F)ccc43)n2)c1 | 1 | 1
COCCNC(=O)c1ccc(CSc2nnc(Cc3ccccc3)n2-c2ccc(F)cc2)cc1 | 14 | 13

Part of the list above in order of length of the SMILES, low to high.
SMILES | NPYLR7 agonist | NPYLR7 agonist max-min
COc1ccc(N2C(=O)CSC2c2ccccn2)c(OC)c1 (stereo not given) | -9 | -13
Fc1cccc(CN2CCN(Cc3ccc(-c4ccn[nH]4)s3)CC2)c1 | 18 | 15
CCOC(=O)N1CCN(Cc2ccc3c(c2)CN(C(=O)c2ccc(F)c(Cl)c2)CCO3)CC1 | 18 | 6

Next section:
SMILES | NPYLR7 agonist | NPYLR7 agonist max-min
O=C1C2C3C=CC(C3)C2C(=O)N1NC(=O)C12CC3CC(CC(C3)C1)C2 (stereo not given) | -7 | -7
CC(=O)c1c(C)cc(C)[nH]c1=O | -6 | -5
CCN1CCN(c2ccc(NC(=O)NCc3ccc(OC(F)F)cc3)cc2C)CC1 | 6 | 2
CCn1c(=O)c2c(nc3n(CC)c(C)cn23)n(C)c1=O | 6 | 3
CCCSc1ncccc1C(=O)N1CCc2c([nH]c3ccc(OC)cc23)C1COCc1ccccc1 (stereo not given) | 3 | -10
Nc1cc(-c2cccc(C(F)(F)F)c2)nn1-c1ccc(C(=O)NCCCO)cc1 | 21 | 18
Cc1cc(C)cc(COc2coc(CN3CCN(C(=O)c4ccccc4OC(F)(F)F)CC3)cc2=O)c1 | 4 | 5
O=C(CC1C(=O)NCCN1Cc1cccc(C(F)(F)F)c1)NCCN1CCOCC1 (stereo not given) | 14 | 4
C/C=C/c1nnnn1[C@H]1CO[C@H]2[C@@H]1OC[C@H]2O | -8 | -19
